Source: PubChem (National Center for Advancing Translational Sciences (NCATS))
hNpr1 antagonist: antagonists of human natriuretic peptide receptor Npr1; P16066; HEK293 hNpr1 GloSensor cGMP, ANP-stimulated luminescence; Potency, µM (doses to about 46.3 µM), for the others: at the highest dose activity change, negative = inhibition, most hits filed as inhibitors; 1.6% of 76,000 active; AID 1347048; active = well fitted inhibition curve with a large enough effect; inconclusive = small, poorly fitted or top-dose-only effect; inactive = no such curve, though single readings can be large or run the other way;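 further: nearly all actives have a fitted effect of over 60% in size; nearly all hits also lower the signal before the agonist is added; a reference antagonist and vehicle were the controls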
Target sequence (P16066 whole entry, looked up): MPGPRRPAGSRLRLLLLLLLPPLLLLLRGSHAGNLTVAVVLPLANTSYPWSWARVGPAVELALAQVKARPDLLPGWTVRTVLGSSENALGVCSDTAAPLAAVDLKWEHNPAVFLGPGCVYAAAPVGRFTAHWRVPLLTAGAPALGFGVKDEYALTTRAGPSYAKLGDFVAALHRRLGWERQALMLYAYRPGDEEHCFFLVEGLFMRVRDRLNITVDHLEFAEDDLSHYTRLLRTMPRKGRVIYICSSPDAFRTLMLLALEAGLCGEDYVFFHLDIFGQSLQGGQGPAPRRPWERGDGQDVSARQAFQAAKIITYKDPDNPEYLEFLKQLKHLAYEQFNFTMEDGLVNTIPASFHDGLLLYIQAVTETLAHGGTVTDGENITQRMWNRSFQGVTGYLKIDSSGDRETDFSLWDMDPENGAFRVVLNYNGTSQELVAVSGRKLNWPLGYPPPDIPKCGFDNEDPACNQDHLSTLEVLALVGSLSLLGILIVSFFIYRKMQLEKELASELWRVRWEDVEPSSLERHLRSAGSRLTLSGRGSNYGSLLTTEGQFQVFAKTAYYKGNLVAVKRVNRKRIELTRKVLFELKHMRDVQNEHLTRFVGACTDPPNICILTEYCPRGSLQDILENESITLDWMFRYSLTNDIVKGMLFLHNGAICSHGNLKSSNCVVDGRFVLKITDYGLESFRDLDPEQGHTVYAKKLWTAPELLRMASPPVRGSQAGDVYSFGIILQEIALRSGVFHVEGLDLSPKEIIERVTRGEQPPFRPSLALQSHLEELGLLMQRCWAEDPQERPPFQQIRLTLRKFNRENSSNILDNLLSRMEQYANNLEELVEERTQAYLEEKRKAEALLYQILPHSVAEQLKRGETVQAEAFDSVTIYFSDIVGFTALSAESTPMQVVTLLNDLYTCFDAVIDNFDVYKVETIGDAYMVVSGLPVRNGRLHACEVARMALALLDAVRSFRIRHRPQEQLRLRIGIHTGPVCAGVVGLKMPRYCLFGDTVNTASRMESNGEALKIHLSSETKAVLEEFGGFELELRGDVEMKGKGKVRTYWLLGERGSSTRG
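HEK293 cells stably expressing human Npr1 and cGMP GloSensor pGS-40F, loaded 2 h with 2% GloSensor reagent, given compound 30 min at room temperature. Luminescence read before and 20 min after 0.1 nM hNppA.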
The depositor's hits bear a star; ? = inconclusive; [ ] = remark or other dose. On the % scale 0 is the no-effect control and ±100 the full control effect; potency means the concentration at half of the fitted maximal effect.

hNpr1 antagonist	structure
-22.3%[70.6 µM]	O=C1[C@@H]2C[C@@H](CN2C2CCOCC2)Oc2ccccc2N1Cc1ccccc1
9.7%[70.6 µM]	O=C(NC[C@H]1OC[C@@H](NCc2cccnc2)[C@@H]1O)C1CC1
12.5%	COc1ccc(NC(=O)N2CCC3(CC2)CC(OC)CCO3)cc1 (stereo unspecified)
5.3%	COc1cccc(C(=O)N2CCC(Cc3nc(-c4cnccn4)no3)CC2)c1
-1.6%	CN(CC1CCOC1)S(=O)(=O)Cc1cccc(Cl)c1 (stereo unspecified)
-6.0%	C[C@H]1[C@@H]2[C@@H](O)C([C@H](C)C(=O)N(C)Cc3ccccc3)CC[C@@]2(C)CC[C@@H]1NC(=O)c1ccccn1 (stereo partly specified)
-3.5%	COc1cc(-c2nc(CN3CCCC(CN)C3)c(C)o2)cc2c1OCO2 (stereo unspecified)
0.8%	CCOc1cccc(CNC(=O)CC2CCCCN(Cc3ccccc3)C2=O)c1 (stereo unspecified)
-10.7%	COCC1CN(C(C)=O)CC12CCN(C(=O)NCc1ccccc1)CC2 (stereo unspecified)
?	FC(F)(F)c1ccc(CN2CC[C@H](c3nc4ccccc4[nH]3)C2)cc1
-19.6%	Cc1ccc(C(=O)N2CCC(N3C[C@H](O)C[C@H]3C(=O)NC3CCCCC3)CC2)cn1
2.2%	COc1nccnc1NC1CCN(C(=O)c2ccco2)CC1
-0.4%[70.6 µM]	CC(C)c1ccc(C(=O)N2C3CCCC2CC(=O)C3)cc1
2.4%	Cc1ccsc1C(=O)N1[C@@H]2CC[C@H]1CC(NC(=O)c1ccncc1)C2 (stereo partly specified)
-4.8%[70.6 µM]	CN(Cc1ccccn1)Cc1cccn1C
-1.6%[70.6 µM]	Cc1ccc(-c2nnc3ccc(N4CCCCC4)nn23)nc1
-3.5%	CC(C)c1noc(-c2cn(C3CCCN(C(=O)c4ccc(Cl)s4)C3)nn2)n1 (stereo unspecified)
?	O=C(Nc1ccccc1)c1ccc2c(c1)OCCN(c1ccccc1)C2
-3.5%	Cc1ccc(C2=NC3(CCN(C(=O)CCc4ccccc4)CC3)ON2)cc1
8.0%[70.6 µM]	CCCC(=O)NC[C@@H]1CC[C@H]2C[C@@H]1C2(C)C
5.6%	Cc1cnc(C(=O)N2CC(Oc3ccccc3-c3nc(C4CC4)no3)C2)cn1
2.8%	Cc1cnc(CCNC(=O)c2ccnn2C)n1CC1CC1
2.5%	CCc1ncc(CN2CCCC(C(=O)Nc3ccccc3-c3ccc(OC)cc3)C2)cn1 (stereo unspecified)
-6.6%	O=C(NCc1cccnc1)c1cc(CN2CCC(Cc3ccccc3)CC2)on1
3.5%	COc1ccccc1C(=O)N1CCC(N2Cc3cnc(C)n3C2=O)CC1
2.24µM*	CC(C)S(=O)(=O)N1CC(Oc2ccc(-c3noc(C4CCOCC4)n3)cc2)C1
-2.1%[70.6 µM]	CN(C(=O)c1cnc2n1CCN(CCc1ccccc1)CC2)c1ccccc1
-15.2%[70.6 µM]	Cn1nccc1-c1ncc2c(n1)OCCN(c1cccc(C(F)(F)F)c1)C2=O
-17.1%	O=C(Cc1cccc(F)c1)NC1CCN(c2cc(-c3ccc(Cl)cc3)[nH]n2)CC1
3.5%	CC(C)CNc1ccc2c(n1)C(C)(C(=O)NC1CCN(C)CC1)CN(Cc1ccccc1)C2 (stereo unspecified)
1.9%	CC1CCCCN1C(=O)c1ccc(CN2C(=O)NC3(CCS(=O)(=O)CC3)C2=O)cc1 (stereo unspecified)
0.2%	CCOc1ccccc1NC(=O)Cn1c(=O)n(CC)c(=O)c2c1cc(C)n2C
7.3%[70.6 µM]	COc1ccc(CN2C[C@H](O)C[C@H]2c2nc(-c3ccc(C)c(F)c3)no2)cc1
-0.3%[70.6 µM]	CC1(C)C(=O)N(CC2CCOCC2)[C@H]2CN(CCCc3ccccc3)C[C@@H]2[S+]1(=O)[O-]
-0.3%	COCCNC(=O)CN1C(=O)NC2(CCC(C(C)(C)C)CC2)C1=O (stereo unspecified)
4.8%	C[C@@]1(O)CCN(Cc2ccc(C#N)cc2)C[C@H]1N1CCCC1
12.0%	O=C(Nc1ccccc1)N1CCC2(CC1)CC(=O)N(c1ccccc1)c1ccccc1O2
-5.1%	OCC1(c2nc(C3CCOCC3)nn2-c2cccc3c2CCC3)CC1
3.7%	COCCc1ccc(OCc2ccccc2-c2ccc(=O)n(C)n2)cc1
-19.5%[70.6 µM]	CC1=C[C@@H](CNC(=O)c2cncnc2)[C@H](C(C)C)C[C@H]1Cc1nnc(-c2ccncc2)o1
-0.3%	CN(C)CCNC(=O)C[C@@H]1c2nc(NC(=O)c3ccc(C(C)(C)C)cc3)sc2C[C@@H]2[C@](C)(CO)[C@H](O)CC[C@]21C
-1.1%	Cc1cc(=O)[nH]c(NCCNC(=O)c2cc(-c3cccn3C)n[nH]2)n1
2.3%	CCC(CC)NC(=O)CC1CCCN(c2cnn(CCOC)c(=O)c2)C1 (stereo unspecified)
3.7%	CCc1nnc([C@@H]2CC(F)(F)CN2C(=O)c2ocnc2C)o1
2.1%	CCCN(C)C(=O)C1CCCN(c2cn[nH]c(=O)c2)C1 (stereo unspecified)
-14.2%	CC1CCN(C(=O)c2cn3ccnc(-c4ccc(F)cc4)c3n2)CC1
2.8%	O=C(NCc1ccc(F)cc1)c1ccc2c(c1)CNCCO2
-0.2%	O=C(Cn1nc2c(cc1=O)CCCCC2)Nc1nc(-c2ccccn2)cs1

Among those listed so far, these have a Cl atom.
hNpr1 antagonist	structure
-1.6%	CN(CC1CCOC1)S(=O)(=O)Cc1cccc(Cl)c1 (stereo unspecified)
-3.5%	CC(C)c1noc(-c2cn(C3CCCN(C(=O)c4ccc(Cl)s4)C3)nn2)n1 (stereo unspecified)
-17.1%	O=C(Cc1cccc(F)c1)NC1CCN(c2cc(-c3ccc(Cl)cc3)[nH]n2)CC1

The results go on:
hNpr1 antagonist	structure
2.4%	COc1ccc(N2CC(c3noc(-c4ccc5c(c4)OCO5)n3)CC2=O)cc1 (stereo unspecified)
5.0%	O=C(N[C@@H]1CCC[C@@H]1C(=O)NCCCc1ccccc1)c1ccncc1
5.6%	O=C(Nc1ccnn1C1CCN(C(=O)c2ccc3n[nH]nc3c2)CC1)C1CC1
-2.0%	Cc1ccc(C(=O)N2CCC3(CC2)CC(CO)N(C(=O)c2ccccc2)C3)cn1 (stereo unspecified)
21.5%[70.6 µM]	CN(Cc1ccc(OC(F)(F)F)cc1)C1CCOc2ccccc21 (stereo unspecified)
-4.0%	CC1(C)NC(=O)N(CC(=O)N2CCc3nc(-c4cccnc4)[nH]c3C2)C1=O
3.8%	O=C(c1ccc(Cl)nc1)N1CCN(c2nc3ncccc3o2)CC1
-4.2%	COC(=O)C1=C(C)N=C2SC=C(CC(=O)NCC3CC3)N2C1c1cccc([N+](=O)[O-])c1 (stereo unspecified)
7.2%	COc1ccc(C(=O)N2CCN(C(=O)c3ccccc3)[C@H](C(=O)N[C@H]3CCCNC3=O)C2)cc1
6.8%	COc1cc(NC(=O)c2cc3c(N4CCSCC4)nc(C)cn3n2)cc(OC)c1
0.0%	CCn1ccnc1CN(CC1CCN(CCc2ccccc2C)CC1)C1CCCC1
8.3%	O=C(CC1CCCCN(Cc2ccccc2)C1=O)NCc1cccnc1 (stereo unspecified)
-12.8%	O=C(NCCC1=CCCCC1)c1c(OCC2CC2)cc(=O)n2c1CCCCC2
6.5%[70.6 µM]	COCC(=O)N[C@H]1C[C@H]2C(=O)NC[C@@H](CCC(=O)N3CCc4ccccc43)N2C1
8.8%[70.6 µM]	O=C1[C@H]2CN(S(=O)(=O)c3ccc(F)cc3)CCN2C(=O)N1CCO
2.6%	OC[C@@H](O)CNc1nccc(C2(c3ccccc3Cl)CCNCC2)n1
11.0%	CN1C(=O)C2(CCCN(C(=O)c3ccc(=O)[nH]c3)C2)c2ccccc21 (stereo unspecified)
-4.7%[70.6 µM]	COc1ccc(-c2noc([C@@H]3Cc4nc[nH]c4CN3Cc3ccc(CO)o3)n2)cc1
0.0%	FC(F)(F)c1ccc(N2C3CCC2CN(Cc2cccc(Cl)c2)C3)cc1
-8.2%	CCc1nc(NC(=O)C[C@H]2NC(=O)c3ccccc3NC2=O)n[nH]1
-5.1%[70.6 µM]	COc1cccc(C(O)c2nc(C(=O)NCc3ccco3)c(C)o2)c1 (stereo unspecified)
-2.0%	CCn1nccc1C(=O)NCCn1ccn2nc(-c3ccc(C)c(C)c3)cc2c1=O
-1.4%	O=C(Cn1c(=O)c2c(n1Cc1ccccc1)CN(Cc1ccccc1)CC2)N1CCC(c2ccccc2)CC1
-3.7%	CC(C)c1ccc(CN2CCc3nc(N4CCN(C)CC4)[nH]c(=O)c3CC2)cc1
-12.0%	CS(=O)(=O)N1CCC(CC(=O)NC2CCCCC2)C1 (stereo unspecified)
-3.2%	CC(C)Oc1ccc(CN2CCC(CO)(CN3CCCC3)CC2)cc1Cl
-1.1%	CN1C(=O)C(c2ccccc2)CC12CCN(C(=O)c1ccc(C#N)cc1)CC2 (stereo unspecified)
-2.8%	Cc1cnc(CN2CC3(CCCN(c4ccc(C#N)cn4)C3)CCC2=O)cn1 (stereo unspecified)
1.2%	O=C(Cn1ccn2nc3c(c2c1=O)CCCC3)NCc1ccc2c(c1)OCO2
-7.1%	CC(C)c1nc(-c2ccc(OC3CCNC3)cc2)no1 (stereo unspecified)
7.5%[70.6 µM]	COc1ccccc1N1CCN([C@H]2[C@@H]3OC[C@@H](O3)[C@@H](NCc3ccncc3)[C@@H]2O)CC1
0.0%[70.6 µM]	CN(Cc1ccccc1OC(F)(F)F)Cc1cccn1C
-7.4%	Cc1cnc(CC2CCN(C(=O)N(C)C)C2)n1Cc1ccccc1 (stereo unspecified)
-26.0%[70.6 µM]	CC(=O)NC1(C)CCN(Cc2cnc(-c3ccccc3)s2)CC1
1.4%	O=C(C1CCC(=O)N(C2CCCCCC2)C1)N1Cc2ccccc2C1 (stereo unspecified)
3.5%[70.6 µM]	Cc1cc(CNC(=O)[C@@H]2CCC[C@@H](NC(=O)C3CCCC3)CN(C)C(=O)C2)no1
5.8%	COc1ccc(NC(=O)c2c(OC)cc(=O)n3c2CCCC3)c(C)c1
14.1%	Cc1ccc(CN2CC[C@H](CNC(=O)C3CC3)[C@H](N(C)C)C2)o1
-2.7%	COC1CCC12CCN(Cc1ccc(C#N)cc1)CC2 (stereo unspecified)
-8.8%	COCCn1c(C)cnc1CCNC(=O)c1ccc(OC)nc1
7.3%[70.6 µM]	CC1(C(=O)NCC2CCCO2)CCCc2cnc(Nc3ccccc3)nc21 (stereo unspecified)
4.5%	CCc1ccccc1NC(=O)N1CCCC(Cn2c(C)nc3cccnc32)C1 (stereo unspecified)
-2.6%	CCC(=O)N1CCc2c(C(=O)NCc3ccccc3F)cccc21
3.8%	O=C(c1ccc(Br)o1)N1CCC(c2n[nH]c(=O)n2Cc2ccc(F)cc2)CC1
-4.4%	O=C(O)CC1(CC(=O)N[C@H]2C[C@@](O)(C(=O)N[C@H]3CCCNC3=O)C[C@@H](O)[C@@H]2O)CCCC1
2.0%	COc1ccc(CCNC(=O)c2c(C)noc2-c2ccccc2OC)cc1OC
-13.4%	O=C(NCc1ccc(F)cc1)N1C[C@@H](CN2CCOCC2)[C@@H](CO)C1
10µM*	Cc1ccccc1CN1CCc2nc(C(=O)Nc3ccccc3)oc2CC1
0.5%	COc1nccnc1NC1CCNCC1
-12.6%	Cc1ccc(OCc2nc(C3CCCCN3C(=O)c3ccn[nH]3)no2)cc1 (stereo unspecified)
-11.4%	CCOc1ccc(C(=O)N2CCC[C@H]2c2nc(-c3ccccc3)no2)cc1
-24.9%[70.6 µM]	CC(C)c1ccc(CN2CCc3ncc(C(=O)Nc4ccccc4)n3CC2)cc1
-12.2%	COc1ccc(C(=O)N2CCc3nn(C)c(=O)n3CC2)cn1
16.4%	C[C@@H]1CN(C(=O)c2nc3sccn3c2CNC2(c3ccccc3)CC2)C[C@H](C)O1
2.1%	Cc1cnn(Cc2c(C(=O)NC3CCc4nnc(C)n4CC3)noc2C)c1 (stereo unspecified)
-0.7%	Cc1ccc(CN2CCC(c3nn(C)c(=O)n3Cc3ccccc3)CC2)o1

Next entries:
hNpr1 antagonist	structure
-7.7%	CCC1(O)CCC12CCN(C(=O)CC(C)C)CC2 (stereo unspecified)
-0.5%	COc1ccc(Cn2c(C3CCN(C(=O)c4ccc(C)cc4)CC3)n[nH]c2=O)cc1
-9.7%	Clc1ccccc1C1(c2ccnc(NC3CC3)n2)CCNCC1
-18.0%[70.6 µM]	Fc1ccc(Nc2ncc(-c3cccnc3)c3c2OCC3)cc1
3.6%[70.6 µM]	O=C(C[C@@H]1CCNC[C@@H]1Cc1cc(COc2ccccc2)on1)NC1CCCCC1
-8.0%	CCc1nc2cc(N3CCC(C(=O)NCc4cccnc4)CC3)cnc2nc1CC
-4.9%	OCCC#Cc1ccc(CN2CCC(CO)(Cc3ccccc3Cl)CC2)cc1
-14.8%[70.6 µM]	COc1cccc(CN2Cc3nc(-c4cc5ccccc5o4)ccc3OCC2=O)c1
2.8%	CN1C(=O)CS(=O)(=O)C12CCN(C(=O)c1ccc3c(c1)OCO3)CC2
0.0%	CCn1cc(S(=O)(=O)N2CC(N(C3CCOCC3)S(C)(=O)=O)C2)cn1

Arranged by the number under hNpr1 antagonist (largest number first): 4 from the list above.
SMILES | hNpr1 antagonist
COc1ccc(CCNC(=O)c2c(C)noc2-c2ccccc2OC)cc1OC | 2.0%
CCOc1ccccc1NC(=O)Cn1c(=O)n(CC)c(=O)c2c1cc(C)n2C | 0.2%
COc1cc(-c2nc(CN3CCCC(CN)C3)c(C)o2)cc2c1OCO2 (stereo unspecified) | -3.5%
Cc1ccc(C(=O)N2CCC(N3C[C@H](O)C[C@H]3C(=O)NC3CCCCC3)CC2)cn1 | -19.6%

This is a subset. The share of hits here may be higher or lower than overall.
